# High-throughput results as filed in PubChem BioAssay.
# PABP FP inh: PABP poly(A) RNA binding inhibitors, primary screen, biochemical, fluorescence polarization, uHTS | Polyadenylate-binding protein 1 (Homo sapiens), P11940 | inhibition, % at 35 µM | actives 1% (n = 290,000) | AID 2014, 2009;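 active = 50% or more with normal probe brightness, or confirmed in later tests; about a fifth of its hits are not listed in these tables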;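 note: calls also rest on retests at 20 µM and on dose response follow-up; controls were probe without protein and protein plus probe with vehicle; some compounds called inactive have numbers as strong as hits; many hits fall short of the cut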
# Target sequence (P11940 whole entry, looked up): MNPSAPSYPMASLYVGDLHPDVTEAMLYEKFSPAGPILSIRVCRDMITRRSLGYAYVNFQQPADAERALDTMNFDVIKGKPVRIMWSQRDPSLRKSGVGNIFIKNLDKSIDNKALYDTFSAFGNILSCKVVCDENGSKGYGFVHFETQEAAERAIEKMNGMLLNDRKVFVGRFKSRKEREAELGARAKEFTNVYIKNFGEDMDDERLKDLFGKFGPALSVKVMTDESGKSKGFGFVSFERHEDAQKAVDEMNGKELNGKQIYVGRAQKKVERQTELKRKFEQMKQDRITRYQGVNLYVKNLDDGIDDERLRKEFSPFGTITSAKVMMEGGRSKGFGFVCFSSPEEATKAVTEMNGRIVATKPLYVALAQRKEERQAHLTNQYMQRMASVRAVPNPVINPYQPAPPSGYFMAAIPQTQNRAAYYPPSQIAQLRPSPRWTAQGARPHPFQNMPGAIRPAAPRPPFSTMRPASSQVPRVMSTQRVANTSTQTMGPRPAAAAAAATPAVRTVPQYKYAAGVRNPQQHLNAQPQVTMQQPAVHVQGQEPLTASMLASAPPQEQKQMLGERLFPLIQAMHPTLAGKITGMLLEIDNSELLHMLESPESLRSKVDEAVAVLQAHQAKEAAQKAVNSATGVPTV
# CSC inhib: cancer stem cell viability inhibitors, primary screen, luminescence | cancer stem cell-like cells viability | inhibition, % at 7.5 µM | actives 1.1% (n = 300,000) | AID 2717, 2010;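 active = mean at 75% or more and at least half the replicates too; tested in HMLE shEcad cells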;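 note: 0% = median of negative and 100% = median of positive control wells; the first replicate is given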
# Yeast UUG start: modulators of yeast start codon fidelity, primary screen, whole organism, S. cerevisiae, single point, plate reader; S. cerevisiae UUG-firefly luciferase reporter, luminescence/redox ratio; actives 0.13% (n = 350,000); activity score, % at 18.7 µM;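 active = replicate mean at a twofold rise or more, about +100% in these data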;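 note: firefly luciferase made from a UUG start codon reports start codon fidelity; reporter light over untreated wells divided by growth signal over untreated wells; some hits fall short of that in this replicate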
# eIF4H inh: human eIF4H binding inhibitors, primary screen, translation initiation inhibitor project, biochemical, uHTS, fluorescence polarization. inhibition, % at 35 µM. eIF4H fluorescence polarization binding assay. AID 2012, 2009. Eukaryotic translation initiation factor 4H (Homo sapiens), Q15056. actives 0.94% (n = 290,000);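 active = 50% or more with normal probe brightness, or confirmed in later tests; about a fifth of its hits are not listed in these tables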;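 note: calls also rest on retests at 20 µM and on dose response follow-up; 0% = protein and probe with vehicle and 100% = probe without protein; strong numbers were not always called active; many hits fall short of the cut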
# MT1-MMP act inh: blockers of MT1-MMP proenzyme processing, primary screen, HT1080 RFP-PRO-GFP cells, GFP/RFP fluorescence; Matrix metalloproteinase-14 (Homo sapiens), P50281; actives 0.061% (n = 360,000); GFP/RFP ratio fluorescence, overnight; percent of plate control window, DMSO zero; GFP/RFP ratio change, % at 20 µM;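 active = GFP/RFP ratio change of at least 30% with cell ATP level not reduced by more than half and red fluorescence within 50% of control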; note: strong numbers were not always called active
#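 Assay system – RFP-PRO-GFP reporter HT1080 cells · Compound dosing – single dose of 20 µM compound, 1% DMSO final · Incubation – overnight compound exposure at 37 °C · Measure – GFP/RFP fluorescence ratio · Benchmarks – DMSO wells and RFP-L50D-GFP cells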
# Rce1 inh: yeast Rce1p protease inhibitors, primary screen, biochemical, fluorescence, cell-free homogeneous; yeast membranes, quenched prenylated peptide cleavage fluorescence; actives 0.27% (n = 290,000); calls only; AID 2563, 2010; CAAX prenyl protease 2 (Saccharomyces cerevisiae (strain ATCC 204508 / S288c)), Q03530;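 active = fall in fluorescence gain of 50% or more versus controls, with final raw signal at or below 3038400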;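 note: plate controls were neutral control wells for no effect and wells lacking membranes for full effect; tested at 10 µM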
# HIV Env fusion: inhibitors of HIV-1 Env-driven cell-cell fusion, primary screen, HeLa-JRFL effector, CEM21 target cells, luciferase; AID 651610, 2012; inhibition, % at 12.3 µM; actives 1.1% (n = 360,000);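 active = mean replicate inhibition score of at least 50 and every replicate individually at or above 50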;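 note: 0% = plate neutral controls and 100% = maraviroc near 300 nM; one replicate is shown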
# eIF4H inh retest: second read-out of eIF4H inh, no call of its own (marks repeat the call); inhibition, %; compound at 20 µM; confirmation average;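 mean of two retest wells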
# PABP FP inh retest: second read-out of PABP FP inh, no call of its own (marks repeat the call); inhibition, %; compound at 20 µM; confirmation repeats;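 mean of two retest wells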
# MT1-MMP act inh RFP: recorded beside MT1-MMP act inh, whose call it bears; RFP signal change, %; measured here: RFP expression control read;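 0 = vehicle wells; hits needed this value within 50% of zero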
# * marks the source's active call; other numbers are inactive results; i = inactive; . = not tested or not shown.
SMILES,PABP FP inh,CSC inhib,Yeast UUG start,eIF4H inh,MT1-MMP act inh,MT1-MMP act inh RFP,Rce1 inh,HIV Env fusion,others
O=C(NNC(=O)C1CC1c1ccccc1)c1ccccc1[N+](=O)[O-] (stereo unspecified),2.8,-9.0,-9.7,-5.2,1.0,3.5,i,.,
Cc1ccsc1/C=C(\C#N)C(=O)NC1CCS(=O)(=O)C1 (stereo unspecified),23.7,2.1,.,5.4,0.9,0.8,i,4.2,
O=C(NCC1(c2ccccc2)CCCC1)C(=O)NCC1(c2ccccc2)CCCC1,-2.9,.,-10.8,-7.3,4.6,1.8,i,-29.3,
COc1ccccc1Nc1nc(N)nc(CSC(=S)N2CCN(c3ccccc3)CC2)n1,-8.4,-3.9,.,-27.1,-0.6,-1.9,i,8.6,
Cc1ccc(NC(=S)NNc2ccc([N+](=O)[O-])cc2S(=O)(=O)Nc2ccccc2C(=O)O)cc1C,-5.5,33.4,-20.1,7.6,4.4,2.1,i,-1.1,
O=C(NC1=NCCS1)c1ccccc1OCc1ccc(F)cc1,2.3,-1.1,.,3.4,-0.3,-4.0,i,7.8,
CCCCCC/C=C/c1ccc(OC)c([C@H]2[C@H]3C=CC[C@@H](C)[C@@H]3C(=O)N2Cc2ccccc2)c1,-2.8,9.8,-13.8,-7.0,-8.9,-27.6,i,1.6,
CCOC(=O)C1=C(C)NC(=S)NC1c1ccc(OCC(=O)N2CCCCC2)cc1 (stereo unspecified),-8.2,-0.3,-27.1,-22.4,0.1,2.6,i,-4.7,
O=C(NCCN1C(=O)CSC1=O)c1ccccc1,0.2,9.2,-15.2,-8.3,3.0,2.8,.,3.9,
CC(N)c1csc(Nc2cc(Oc3ccccc3)ncn2)n1 (stereo unspecified),.,.,11.3,.,-8.8,1.4,.,0.1,
Cc1cc(NC(=O)CSc2nc3sc4c(c3c(=O)n2C)CCCC4)no1,-5.7,-1.4,-21.4,-1.7,-1.5,2.6,i,-13.1,
CC(=Nc1ccccc1)Nc1ccccc1,-4.6,2.8,-11.8,-3.1,0.5,2.2,.,3.2,
Cc1nnc2c(NCCc3ccccc3)nc3ccccc3n12,4.3,-7.3,-6.9,-2.4,17.9,6.6,i,5.5,
COc1ccc(NC(=O)Cc2nnc(SCC(=O)NC3CCCC3)n2C)cc1,7.9,4.0,-18.1,-4.8,2.1,2.7,i,21.2,
Cn1c(Cl)c(C(=O)Nc2ccccc2)c2ccccc21,-6.4,-9.0,-11.7,-2.4,1.1,2.7,.,.,
COc1cccc(OCc2nc(-c3ccc(Br)o3)no2)c1,-6.3,5.9,-17.2,-1.2,3.6,3.3,i,13.3,
Cc1cc2ccccc2c(=O)n1CC(=O)Nc1ccc2c(c1)OCO2,-8.9,-24.2,-7.6,-2.2,1.8,5.1,i,.,
O=C(O)/C=C\C(=O)NNC(=O)c1cc(-c2ccccc2)n[nH]1,7.1,-8.6,-1.1,35.0,1.2,3.5,i,-15.9,
CC(C)OCCCNC(=O)C(=O)NCCCOC(C)C,-0.8,-10.6,-8.1,0.4,3.0,6.5,.,-57.0,
COC(=O)[C@H](Cc1ccccc1)NC(=O)N1CC(C)OC(C)C1 (stereo partly specified),-1.3,11.0,-12.3,10.3,-1.9,4.1,.,.,
CN(CC(=O)Nc1cccc(F)c1)C(=O)c1ccccc1OCC(=O)Nc1cccc(C(F)(F)F)c1,.,2.9,.,.,-3.7,-11.8,i,-47.0,
CCc1ccc(OCCCC(=O)O)c(Br)c1,-7.8,0.9,8.4,-2.1,3.0,2.1,i,.,
COC(=O)c1ccc(C(=O)N(CCN(C)C)c2nc3c(Cl)cccc3s2)cc1,10.2,-2.3,.,0.7,-3.0,1.1,i,6.9,
O=C(Nc1ccccc1C(=O)NCc1ccco1)NC1CCCCC1,6.6,-2.9,-4.6,3.9,-2.4,1.1,i,.,
Cc1ccc(S(=O)(=O)Oc2ccc(/C=N/NC(=O)c3nn(C)cc3[N+](=O)[O-])cc2)cc1,-1.3,6.1,.,-7.7,-8.1,-4.6,i,12.4,

# (cont.)
SMILES,PABP FP inh,CSC inhib,Yeast UUG start,eIF4H inh,MT1-MMP act inh,MT1-MMP act inh RFP,Rce1 inh,HIV Env fusion,others
CCSc1nnc(NC(=O)CN(C)S(=O)(=O)c2ccc(F)cc2)s1,8.0,-7.5,-4.0,12.6,9.2,-3.0,i,.,
CC(C)(C)C(=O)CC(=O)Nc1ccc(Cl)c(N)c1,3.3,9.5,-13.6,2.5,-2.7,-1.3,i,-20.8,
COc1ccccc1N/N=C/c1c(CO)cnc(C)c1O,-3.0,8.0,-5.9,11.5,-0.4,-0.8,i,.,
CCOC(=O)C(NC(=O)c1cccnc1)(Nc1cccc(C)n1)C(F)(F)F (stereo unspecified),-1.4,-2.8,-20.1,6.3,4.6,6.3,i,.,
CC(Cc1ccccc1)NC(=O)/C=C/c1ccc([N+](=O)[O-])cc1 (stereo unspecified),-6.2,-7.6,.,-6.8,-2.2,-1.4,i,.,
COc1cc(CNCCO)cc(Br)c1OCc1ccccc1,13.0,.,.,3.1,2.3,1.6,i,-7.8,
CC(=O)C1=C(O)C(=O)N(Cc2ccccc2)C1c1ccc(Br)cc1 (stereo unspecified),13.0,-4.8,-11.5,-7.7,2.6,3.9,i,7.8,
Cc1cc(N=Cc2c(O)n(-c3ccc(C)c(C)c3)c(=O)c3ccccc23)no1,3.8,.,.,6.1,.,.,.,8.4,
CCN(CC)Cc1cc(C(=O)O)c(-c2ccccc2)o1,2.3,-5.9,.,13.3,-5.5,2.0,i,18.3,
CC(C)(C)NC(=O)C(=O)NNC(=O)C12CC3CC(CC(C3)C1)C2,-1.0,14.7,-20.2,-3.5,2.2,0.8,i,12.5,
Cc1c(N2CCCC2)cc2c(c1N)C(C)(C)CC2(C)C,0.6,24.0,1.9,-34.8,-5.1,-0.8,i,6.8,
COc1ccc(CNC(=O)C2CC(=O)N(c3ccc(OCC(=O)N4CCCCC4)cc3)C2)cc1 (stereo unspecified),-1.7,-2.5,8.6,0.7,8.1,4.3,i,.,
COc1ccc(C(=O)Nc2ccc(C(=O)Nc3nccs3)cc2)cc1[N+](=O)[O-],-1.3,-6.3,.,57.5,4.4,7.3,i,.,eIF4H inh retest=-10.2;PABP FP inh retest=-1.7
COc1cccc(CN(C)C(=O)c2cccnc2SC)c1OC,-20.2,-11.9,.,4.7,1.9,2.6,i,6.4,
COc1ccc(Cl)cc1NC(=O)CN(C)C(=O)CCCNC(=O)c1ccc(Cl)cc1,.,-6.0,-11.8,.,-1.7,-0.6,.,.,
CC1(C)NC(=O)N(CC(=O)Nc2ccc(-c3ccccc3)cc2)C1=O,.,.,-8.7,.,3.3,0.7,.,-60.3,
CCc1cccc(NC(=O)CCSCCC(=O)Nc2cccc(CC)c2)c1,-0.8,3.2,-1.0,-3.5,3.4,0.1,i,.,
Cc1cnc(C(=O)Nc2ccc(C)c(S(=O)(=O)N3CCCCCC3)c2)cn1,.,.,-7.5,.,5.0,-6.1,.,1.5,
Cc1ccc(CN(C(=O)c2csnn2)C(C(=O)NC2CCCC2)c2ccccn2)cc1 (stereo unspecified),-3.7,-19.4,-2.1,-6.4,-0.7,2.4,.,15.9,
NNC(=O)CN1C(=O)Nc2ccc(Cl)cc2C1c1ccccc1 (stereo unspecified),14.0,5.3,-0.5,-2.6,-0.8,4.5,i,-0.9,
COc1ccc(C(=O)C(OC(=O)c2ccccc2)c2ccccc2)cc1 (stereo unspecified),-17.4,-2.0,-24.0,-9.4,3.8,0.7,i,-76.2,
Brc1cc2c(cc1/C=N/Nc1nc3ccccc3s1)OCO2,-14.2,-9.1,-5.5,-1.4,-5.5,-1.8,i,.,
COc1ccc(NC(=O)CSc2nnc(N)s2)cc1,-0.7,-10.0,-5.2,5.5,-1.8,-4.0,i,.,
CCn1c(CN2CCOCC2)nnc1SCC(=O)Nc1ccc(C)cc1,2.5,9.7,-17.0,1.6,-5.2,-2.5,i,-3.2,
CC(Oc1ccc(C(=O)c2ccccc2)cc1)C(=O)N1CCOCC1 (stereo unspecified),.,6.6,4.9,.,0.8,-2.8,i,3.2,

# The last three compounds of the section before open the next one:
SMILES,PABP FP inh,CSC inhib,Yeast UUG start,eIF4H inh,MT1-MMP act inh,MT1-MMP act inh RFP,Rce1 inh,HIV Env fusion,others
COc1ccc(NC(=O)CSc2nnc(N)s2)cc1,-0.7,-10.0,-5.2,5.5,-1.8,-4.0,i,.,
CCn1c(CN2CCOCC2)nnc1SCC(=O)Nc1ccc(C)cc1,2.5,9.7,-17.0,1.6,-5.2,-2.5,i,-3.2,
CC(Oc1ccc(C(=O)c2ccccc2)cc1)C(=O)N1CCOCC1 (stereo unspecified),.,6.6,4.9,.,0.8,-2.8,i,3.2,
CCCC1=Nc2cc(C(=O)N3CCCC3)ccc2Sc2ccc(C)cc21,-1.8,12.9,-3.9,-4.0,-0.2,0.7,i,2.8,
N#CCSc1ccccc1NC(=O)COC(=O)CCN1C(=O)C2CC=CCC2C1=O (stereo unspecified),.,-1.5,-8.4,.,-7.1,2.1,.,8.0,
COC(=O)c1ccc(CNC(=O)COC(=O)CNS(=O)(=O)c2ccc(C)cc2)cc1,.,.,-5.0,.,-1.7,3.5,.,-6.9,
O=C(O)COc1ccccc1/C=N/NC(=O)CSc1nc2ccccc2n1Cc1ccccc1Cl,9.0,-3.5,-16.0,13.5,7.0,0.0,i,6.3,
CCCc1cc(=O)oc2c(C)c(OC(C)C(=O)NCC(O)c3ccccc3)ccc12 (stereo unspecified),-1.0,-32.4,-12.5,1.1,0.3,-0.5,i,5.0,
CCCOC(=O)c1ccc(NC(=O)CN(C)Cc2cccs2)cc1,7.9,.,10.2,-6.6,-2.9,-1.7,i,21.5,
CC(OC(=O)c1cc(=O)[nH]c2ccccc12)C(=O)NC1CCCC1 (stereo unspecified),.,.,-22.3,.,5.5,3.8,.,-4.7,
O=C1COc2ccc(S(=O)(=O)N3CCCCC3)cc2N1,12.5,.,-13.0,-4.4,3.3,6.7,i,0.7,
Cc1onc(-c2ccccc2)c1C(=O)n1nnc2ccccc21,2.4,-4.6,-9.6,-3.0,-1.8,2.6,i,3.5,
CCN1/C(=C/c2ccc3ccc(C)cc3[n+]2CC)Sc2ccccc21,-1.8,17.6,.,8.0,.,.,.,.,
C=C1CCC2C(C)(C)[C@H](O)CC[C@@]2(C)[C@@H]1COc1cc(=O)oc2ccccc12 (stereo partly specified),-6.5,29.8,0.9,4.7,5.2,0.8,i,.,
Cc1c(-c2ccccc2)cn2c1-c1ccc(C)n1CC2,88.3*,-15.6,-3.8,90.6*,-21.6,4.2,.,-105.1,
Cc1ccc(CNC(=O)Nc2ccc3c(c2)N(C)C(=O)CS3)cc1,-1.1,.,.,-11.6,-2.3,0.4,i,13.7,
CC1(C)CC(=O)c2cnc(N3CCN(c4ccccc4)CC3)nc2C1,-2.0,36.0,-1.2,-2.3,-1.5,-17.6,i,.,
CCN1CNC(=S)N(c2ccccc2OC)C1,-1.8,-4.2,.,-0.8,-5.7,0.4,i,.,
